Menin MLL FP FL: inhibitors of human menin-MLL interaction, wild-type MLL peptide; Fluorescence polarization, fluorescein-MLL peptide displacement from menin; FP activity change, % at 61.4 µM; 290,000 tested, under 10 active; inconclusive = falling polarisation curve, or a change in total fluorescence; inactive = total fluorescence flat and polarisation flat or rising; no compound was filed as active; the % refers to the polarisation; negative = inhibition;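 note: % of control where 0% means no effect; inhibitors lower the polarisation; unlabelled MLL peptide was the positive control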
gsp antag: gsp mutant antagonism; AID 624288; Potency, µM (titrated, usually from 76.9 µM), without a hit: at the top dose activity change, negative = inhibition, most hits filed as inhibitors; 340,000 compounds, 0.4% hits; gsp-mutant cells, cAMP HTRF, 30 min; control for the full effect not named in the record; active = falling curve of any shape with a large fitted effect; inconclusive = falling curve, mostly with a smaller effect; inactive = flat or rising curve; cell line not stated here;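 note: intracellular cAMP measured with PDE inhibitor Ro 20-1724 present during compound exposure; potency is the fitted concentration of half-maximal effect; % is set by controls: 0 for no effect and ±100 for the full control effect; nearly all actives have a fitted effect of over 65% in size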
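Cells in G418 medium, seeded 16-24 h, 37C; buffer exchange to DPBS + 1 mM CaCl2, 0.5 mM MgCl2, 0.05% BSA; cpds in DMSO + […] (300 uM stock), 30 min 37C; HTRF cAMP detection.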
Sfp PPTase inh: blocks B. subtilis Sfp PPTase activity; Q9F4F7; Biochemical Sfp PPTase activity, qHTS; Potency, µM, for the others: max response, negative = inhibition, usual class: inhibitors; 310,000 compounds, 3.5% hits; active = well fitted inhibition curve with a large enough effect; inconclusive = small, poorly fitted or top-dose-only effect, or another doubt; inactive = no such curve, though single readings can be large or run the other way;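 note: the enzyme is Sfp with the accession as filed and its product quenches rhodamine fluorescence; potency is the fitted concentration of half-maximal effect; 0% = enzyme reaction without inhibitor and -100% = no enzyme wells; top concentration of the series not given in the record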
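Fluorescence-quenching assay with 15 nM Sfp, 5 uM rhodamine-CoA and 12.5 uM BHQ-2-labelled ybbR peptide in pH 7.6 Hepes/MgCl2 buffer. Enzyme was pre-incubated with compound for 15 min at room temperature. Rate was taken from the 30-min fluorescence change (525/598 nm).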
CtBP-E1A blk: inhibitors of CtBP/E1A interaction | AlphaScreen GST-E1A/His-CtBP binding, 1536-well; active compounds read low; control for the full effect not named in the record | activity change, % (test concentration not listed) | 340,000 compounds, 0.49% hits | AID 651724; in the data active means activity change below about -65%; inconclusive means about -30% to -65%; inactive means above about -30%; note: % is set by controls: 0 for no effect and ±100 for the full control effect
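Protein mix (5X: 125 nM each GST-E1A, His-CtBP) was incubated with pinned compound 2 h at 37 deg C in dark, in 50 mM Tris pH 8.0 buffer with 300 mM NaCl. Glutathione donor and nickel acceptor beads followed; AlphaScreen signal read after 1 h.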
gsp agonist: agonists of gsp mutant (McCune-Albright syndrome); gsp mutant cells, cAMP HTRF, 30 min; control for the full effect not named in the record; Potency, µM (series often up to 76.9 µM), for the others: at the highest dose activation (cAMP increase), actives largely listed as activators; 340,000 compounds, 0.13% hits; AID 624287; active = well fitted activation curve with a large enough effect; inconclusive = small, poorly fitted or top-dose-only effect, or another doubt; inactive = no such curve, though single readings can be large or run the other way; cell line not stated here;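 note: phosphodiesterase inhibitor Ro 20-1724 added with compounds to block cAMP breakdown; potency is the fitted concentration of half-maximal effect; nearly all actives have a fitted effect of over 60% in size; about a fifth of the inactives were tested at one dose only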
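Cells stably selected in G418 were plated at 2000/well, grown 16-24 hr, then given compounds in DMSO with the PDE inhibitor […] (300 uM solution added) for 30 min at 37C; cAMP was read by HTRF.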
TRPV1 PAM: potentiators of human vanilloid receptor 1 (TRPV1). Q8NER1. TRPV1-expressing cells, Fluo-8 calcium influx, capsaicin EC20 potentiation; host cell line not named in the record; control for the full effect not named in the record. potentiation, % at 8.33 µM. 320,000 compounds, 0.02% hits. AID 540277; active means potentiation above 80%; inconclusive means 30% to 80%; inactive means below 30%; note: 0% is about no effect
Target sequence (Q8NER1 whole entry, looked up): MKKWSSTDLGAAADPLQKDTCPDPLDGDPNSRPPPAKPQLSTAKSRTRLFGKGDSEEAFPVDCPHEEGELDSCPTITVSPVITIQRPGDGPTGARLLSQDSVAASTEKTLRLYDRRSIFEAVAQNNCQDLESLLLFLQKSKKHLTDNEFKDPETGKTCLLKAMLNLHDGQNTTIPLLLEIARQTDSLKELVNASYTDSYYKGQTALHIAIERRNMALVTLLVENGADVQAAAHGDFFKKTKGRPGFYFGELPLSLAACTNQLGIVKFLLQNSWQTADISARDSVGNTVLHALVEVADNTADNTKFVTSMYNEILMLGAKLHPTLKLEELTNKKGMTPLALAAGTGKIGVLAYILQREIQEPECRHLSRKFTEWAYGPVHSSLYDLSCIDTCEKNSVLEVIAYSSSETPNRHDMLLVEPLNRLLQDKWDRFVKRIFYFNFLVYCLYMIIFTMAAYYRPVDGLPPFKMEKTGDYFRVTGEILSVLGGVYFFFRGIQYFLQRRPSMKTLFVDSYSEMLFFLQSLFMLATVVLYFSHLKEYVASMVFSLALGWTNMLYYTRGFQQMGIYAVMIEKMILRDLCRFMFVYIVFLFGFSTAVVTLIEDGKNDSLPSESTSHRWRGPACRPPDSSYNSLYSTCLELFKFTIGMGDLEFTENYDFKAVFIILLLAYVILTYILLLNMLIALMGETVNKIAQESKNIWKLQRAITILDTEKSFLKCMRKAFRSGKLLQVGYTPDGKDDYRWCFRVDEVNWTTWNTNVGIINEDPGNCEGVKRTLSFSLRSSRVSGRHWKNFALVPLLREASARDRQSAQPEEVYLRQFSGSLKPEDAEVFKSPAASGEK
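Fluo-8 calcium influx in TRPV1-expressing cells, kinetic read (ex 480/em 520 nm). Compound added and read 3 min for agonist activity, followed by capsaicin at EC20 final and 2 min further read for enhancement.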
ClpP mod: qHTS Assay for Activators of ClpP; ATP-dependent Clp protease proteolytic subunit (Bacillus subtilis (strain 168)), P80244; purified B. subtilis ClpP, FRET peptide cleavage, 20 min; Potency, µM (titrated, usually from 57.5 µM), for the others: top-dose activity change, negative = active; 340,000 compounds, 1.9% hits; AID 651965, 2013; active = well fitted falling curve with a large enough effect; inconclusive = small, poorly fitted or top-dose-only effect; inactive = no such curve, though single readings can be large or run the other way; note: potency is the fitted concentration of half-maximal effect; the source files actives as falling curves though it sought activators and does not explain the sign; nearly all actives have a fitted effect of over 65% in size; many hits overshoot -100%
Target sequence (P80244 whole entry, looked up): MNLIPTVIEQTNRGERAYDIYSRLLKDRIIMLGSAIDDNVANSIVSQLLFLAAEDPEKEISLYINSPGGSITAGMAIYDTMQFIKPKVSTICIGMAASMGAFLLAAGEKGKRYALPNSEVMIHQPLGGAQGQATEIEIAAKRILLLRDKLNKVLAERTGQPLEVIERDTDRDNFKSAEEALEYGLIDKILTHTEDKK
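Purified B. subtilis ClpP, 10 microg/mL final in Tris/HCl pH8 with KCl, BSA, glycerol and Tween-20, cleaved an Abz/nitrotyrosine-quenched decapeptide. Fluorescence (ex 320, em 430) was read at 0 and 20 min at room temperature. Delta was normalized to 5.8 microM ADEP and DMSO/no-enzyme controls.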
Numbers without * were called inactive; ? = inconclusive; nt = not tested or not shown; & = joins results of further samples; [ ] = remark or other dose.

no. | structure | Menin MLL FP FL | gsp antag | Sfp PPTase inh | CtBP-E1A blk | gsp agonist | TRPV1 PAM | ClpP mod
1 | CCC/C(C#Cc1ccc(N(C)C)cc1)=C1/c2ccccc2C(=O)N1c1ccccc1 | nt | -2.7% | nt | 74.9 | 23.1% | nt | -1.6%
2 | CS(=O)(=O)N(CC(=O)NCc1ccncc1)c1ccc(Cl)c(Cl)c1 | 4.1 | 0.5% | 19.7% | 1.7 | -3.3% | -8.7 | 0.0%
3 | Cc1ccccc1CN1[C@@H]2c3ccccc3C[C@@H]2OCCS1(=O)=O | 3.4 | -9.2% | 6.1% | -0.6 | nt | 1.6 | 2.2%&-0.6%
4 | NS(=O)(=O)c1ccc(NC(=S)NC(=O)/C=C/c2ccco2)cc1 | ? | -13.9% | 20µM* | 10.6 | -51.4%[inhibitor] | 22.0 | 1.4%
5 | O=C(COC(=O)c1ccc(O)cc1)NC1CCCCCC1 | nt | -5.9% | nt | nt | -19.7% | -1.4 | -0.9%
6 | CC(=O)Nc1ccc(C(=O)OCC(=O)N2CCC(Cc3ccccc3)CC2)cc1 | nt | -11.0% | nt | 0.4 | ? | -9.5 | 3.0%
7 | FC(F)(F)c1cccc(CNc2ncccc2-c2nc3cc(Cl)ccc3o2)c1 | -3.1 | -0.1% | 8.3% | 13.0 | -5.6% | -1.0 | 31.6µM*
8 | CC(C)C(=O)Nc1ccc(C(=O)Nc2nnc(C(C)(C)C)s2)cc1 | -5.0 | -2.0% | 10.2% | -1.1 | -36.7%[inhibitor] | 2.9 | nt
9 | CN=C1c2cc3cc(OC)ccc3n2CCN1Cc1ccccc1 | 4.7 | 12.9% | -7.6% | 9.1 | -2.4%[15.4 µM] | ? | 0.6%
10 | Cc1cccc(OCCCCCn2ccnc2)c1C | 2.8 | 0.7% | -2.4% | -11.8 | ? | 7.6 | -0.2%
11 | CCOc1ccc(N2CC(NC(=O)c3cccc4ccccc34)CC2=O)cc1 (stereo not given) | nt | 5.0% | nt | 2.3 | 1.4%[15.4 µM] | -6.4 | nt
12 | CCC(C)NS(=O)(=O)c1ccc(S(=O)(=O)N(CC(=O)Nc2ccccc2)Cc2ccco2)cc1 (stereo not given) | 4.0 | -26.4% | 11.4% | -9.5 | 2.3% | 23.4 | -1.5%
13 | CC(C)c1nnc(NC(=O)CCC(=O)NCc2cccs2)s1 | 4.2 | 4.1% | 15.8% | 2.3 | 19.2% | -0.9 | -1.1%
14 | COc1ccc(-c2cc(C(=O)N3CCN(S(=O)(=O)c4ccccc4)CC3)[nH]n2)cc1 | -5.4 | ? | 2.1% | -1.2 | -8.1% | 22.5 | 1.0%
15 | COc1cc2c(cc1OC)CC(C(=O)NCc1ccccc1)NC2 (stereo not given) | -1.1 | 4.3% | 1.2% | 0.4 | -13.9%[15.4 µM] | 5.9 | nt
16 | CCc1cc2cc(C)ccc2nc1SCC(=O)NNC(=O)c1ccco1 | -1.4 | nt | 9.6% | -10.8 | 0.9%[15.4 µM] | -8.1 | nt
17 | COc1ccc(C(=O)Nc2cccc3c2CCCC3)cc1OC | -3.4 | 19.9% | 0.3% | nt | 6.5% | -3.1 | -12.9%
18 | CC(OC(=O)CCCN=C1NS(=O)(=O)c2ccccc21)C(=O)Nc1ccccc1[N+](=O)[O-] (stereo not given) | nt | -7.0% | nt | -22.1 | -22.6% | -3.9 | -2.4%
19 | CC(=O)N/N=C/c1cc(C(C)(C)C)cc(/C=N/NC(C)=O)c1O | ? | 13.3% | 13.9% | -87.8* | -3.5% | 0.8 | nt
20 | C[C@H](CO)N1C[C@H](C)[C@@H](CN(C)S(=O)(=O)c2cccc(F)c2)Oc2ncc(Br)cc2C1=O | nt | nt | nt | 0.7 | 31.6µM* | nt | 0.5%
21 | CN(C)CCNc1ccc(CO)c2oc3ccc(O)cc3c(=O)c12 | nt | -6.5% | nt | ? | 9.0% | nt | -1.7%
22 | CN(C(=O)c1ccco1)c1nnc(C23CC4CC(CC(C4)C2)C3)s1 | 0.9 | -13.2% | 4.6% | -1.8 | ? | -4.4 | -7.5%
23 | CCN1C(=O)[C@H]2[C@@H](c3ccccc3)N3C(=O)N(c4cccc(F)c4)C(=O)[C@@]3(CC(C)C)[C@H]2C1=O | -0.8 | 5.4% | 14.5% | 12.2 | nt | -28.6 | 0.9%
24 | Cc1ccc(NC(=O)COC(=O)CNC(=O)c2cccs2)cc1S(=O)(=O)N1CCOCC1 | nt | -6.2% | nt | 8.0 | -5.0% | nt | 1.3%
25 | N#Cc1ccsc1NC(=O)C1CCN(C(=O)c2ccc(Cl)cc2)CC1 | nt | -17.8% | nt | 1.5 | ? | ? | -5.6%
26 | Cc1noc(C)c1COc1ccccc1C(=O)N1CCN(S(=O)(=O)c2ccc(F)c(F)c2)CC1 | nt | 0.6% | nt | -20.3 | 24.6% | nt | -3.5%
27 | O=C(/C=C/c1cccc([N+](=O)[O-])c1)NCc1ccco1 | 2.3 | 2.4% | 4.4% | -6.9 | 0.7% | -26.1 | -3.7%
28 | Cc1ccc(NCC(=O)N/N=C/c2cc3ccccc3nc2Cl)cc1 | -0.9 | -7.3% | -15.3% | -9.7 | 16.2% | 22.2 | -9.4%
29 | CC(C(=O)Nc1ccc(C#N)cc1)N(C)CC(=O)N(C)c1c(N)n(Cc2ccccc2)c(=O)[nH]c1=O (stereo not given) | nt | 12.2% | nt | 5.6 | 24.3% | nt | nt
30 | COc1ccc(C2C=C(C)Nc3nc4ccccc4n32)cc1 (stereo not given) | ? | -18.6% | 6.5% | -19.8 | ? | -18.7 | nt
31 | O=C(CSc1ncccn1)N1CCCC1 | -1.6 | 9.9% | 15.9% | 2.8 | 3.6% | -5.4 | nt
32 | COc1ccc(-c2nc(N)n(C(=O)Cc3ccccc3)n2)cc1 | 3.8 | 6.1% | 4.3% | 5.8 | -17.4% | 2.9 | 18.4%
33 | O=C(c1c(Cl)cccc1Cl)N1CCCCCC1 | 0.0 | -3.8% | 2.4% | -2.6 | 5.8% | -3.3 | 0.9%
34 | CC1(C)CC(=O)C=C(NC2CCCCCC2)C1 | 0.2 | 2.2% | 9.3% | 8.6 | 5.5% | 18.1 | -0.8%
35 | CC[n+]1ccc(/C=C/c2c[nH]c3ccccc23)cc1 | ? | ? | -15.6% | 2.9 | 5.3% | 8.3 | -0.7%
36 | CC(=O)N1CCN(C(=O)c2ccccc2NS(=O)(=O)c2ccc(F)cc2)CC1 | nt | -3.4% | nt | 6.3 | -3.1% | 5.2 | 0.0%
37 | Cn1nc(C(=O)NC2CCCN(Cc3ccccc3F)C2)c2ccccc2c1=O (stereo not given) | nt | 0.6% | -10.1% | -1.0 | -4.4%[15.4 µM] | -21.7 | 1.4%
38 | CC(=O)C1=C(O)C(=O)N(c2ccc(S(N)(=O)=O)cc2)C1c1cccc([N+](=O)[O-])c1 (stereo not given) | -5.3 | 12.6% | -4.3% | -5.1 | 11.5% | 16.9 | -2.5%
39 | CCCC1Cc2c(sc(N)c2C#N)CO1 (stereo not given) | 0.0 | 13.5% | -12.1% | 0.4 | 0.1% | 6.4 | nt
40 | Cc1ccc(-c2nc3ccccc3c(=O)n2NC(=O)COc2ccccc2)cc1 | 7.4 | -10.6% | 10.9% | -10.8 | ? | 3.8 | 0.2%
41 | CCc1nc2c(oc3ccccc32)c(=O)[nH]1 | 3.5 | 10.8% | -8.0% | -2.2 | -25.5% | -0.1 | -5.2%
42 | O=c1cc(-c2ccc(O)cc2)oc2c1ccc1ccccc12 | nt | -5.2% | nt | 10.0 | 22.2% | -10.1 | -10.5%
43 | O=C(c1cccnc1)N1CCN(c2ccc([N+](=O)[O-])cc2Cl)CC1 | 5.0 | -21.6% | 6.4% | 1.6 | -124.6%[inhibitor] | -0.7 | -0.1%
44 | Cc1ccc(NC(=O)CNc2ccccc2N2CCCC2=O)cc1S(=O)(=O)N1CCCCC1 | nt | -3.4% | nt | -0.4 | -25.7% | 5.1 | -2.8%
45 | Cc1cccc(-n2ccnc2CN2CCN(C3CCCC3)C(CCO)C2)c1 (stereo not given) | 2.3 | 7.1% | -6.9% | nt | 13.7% | -0.1 | -0.8%
46 | COc1ccc(C)cc1S(=O)(=O)N1CCC(C(=O)NCCc2ccccc2)CC1 | 7.6 | -12.2% | 15.5% | 3.4 | -17.9% | -3.3 | -2.3%
47 | COC(=O)c1cc(NC(=O)COC(=O)CN2C(=O)C3CC=CCC3C2=O)cc(C(=O)OC)c1 (stereo not given) | nt | -8.3% | nt | -0.3 | -12.9%[15.4 µM] | -6.5 | 1.7%
48 | CN=C1N(C)C[C@@H]2[C@@H]3C(=O)N(C)C(=O)[C@@H]3[C@](Cc3ccccc3)(C(=O)OC)N12 | nt | 10.8% | nt | 5.7 | nt | nt | 1.6%
49 | Cc1ccc(C(C)C)c(OCC(=O)NNC2=CC(=O)CC(C)(C)C2)c1 | 1.5 | -19.1% | -0.4% | -1.5 | -0.3%[15.4 µM] | 5.8 | 0.7%
50 | COc1ccc(NC(=O)CSc2nc3[nH]ncc3c(=O)[nH]2)c(OC)c1 | nt | 8.2% | nt | 3.4 | -2.3% | 7.7 | -1.8%

(cont.)
no. | structure | Menin MLL FP FL | gsp antag | Sfp PPTase inh | CtBP-E1A blk | gsp agonist | TRPV1 PAM | ClpP mod
51 | COC(=O)C1=C(C)Nc2nnnn2C1c1cccs1 (stereo not given) | 1.6 | -2.1% | 12.6% | 5.2 | 22.8% | -5.5 | -1.4%
52 | COc1ccccc1Nc1nnc(SCC(=O)N2CCCC2)s1 | 1.0 | -0.9% | 7.6% | 5.5 | -69.4%[inhibitor] | -5.4 | -0.7%
53 | COC(=O)c1[nH]c2cc(C)ccc2c1NC(=O)CN1CCCc2ccccc21 | 3.3 | -8.3% | ? | -6.2 | -97.3% | -4.2 | -8.5%
54 | CCOC(=O)C1(C(=O)OCC)NC(=O)CC1C(C)C (stereo not given) | nt | 10.3% | nt | 4.9 | -3.6%[15.4 µM] | nt | 0.6%
55 | Cc1ccc(C(=O)Nc2ccc3c(c2)OCCO3)cc1S(=O)(=O)N1CCOCC1 | nt | -4.5% | nt | ? | -17.8%[15.4 µM] | nt | -2.4%

Screens: PubChem, National Center for Advancing Translational Sciences (NCATS)
